Screening data from PubChem.
Vif TR-FRET: inhibitors of Vif binding to APOBEC3G peptide, primary screen, biochemical, TR-FRET, GST-Vif 1-94, biotin-A3G peptide, dose response retest (AID 1117319) | actives 0.57% (n = 260,000) | TR-FRET GST-Vif / biotin-A3G peptide binding; higher % means a stronger effect; test concentration not given here; strong numbers were not always called active | one-dose inhibition, %; IC50 in µM for titrated hits;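 active means above the screen mean plus three standard deviations and confirmed in dose response; inconclusive means results disagree or hit not tested in dose response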;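 further: Vif residues 1-94 fused to GST binding biotinylated APOBEC3G peptide 110-148; 0% = full assay without inhibitor and 100% = GST in place of GST-Vif; retest series ran down from 100 µM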
Beta apoptosis: blocks beta cell apoptosis | AID 435005 | actives 0.8% (n = 300,000) | INS-1E cytokine-induced death, ATP luminescence, 48 h; percent of positive-control rescue, neutral wells zero | protection from apoptosis, % (concentration not given with the values);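 active means all replicates at 75% or more, or half of them and the mean; inconclusive means half reach 75% but not the mean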;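 further: 0% = cytokine-treated negative control wells and 100% = positive control rescue; higher means more ATP so stronger rescue from cytokine killing; wells of about 40 µL received 100 nL stock; the first replicate is given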
Ecoli rRNA inh: inhibitors of bacterial rRNA selective over humanized ribosomes | E. coli WT GFP vs humanized-ribosome RFP mutants, fluorescence, 24 h; hits give low values; DMSO median 0, no signal -100 | GFP signal change (wild-type ribosome), % (no concentration beside the values) | actives 1.6% (n = 350,000) | AID 720706;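 active means significant combined selectivity score with lowered wild-type GFP, culture density cut under 30%, mutant RFP and density less affected; inactive means any of these conditions unmet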; further: one replicate is shown; some compounds called inactive have numbers as strong as hits
RanGTP-Impb inh: inhibitors of RanGTP-importin-beta interaction, primary screen, biochemical, FRET, CFP-Ran, YFP-importin-beta, homogeneous; cell-free CFP-Ran/YFP-importin-beta FRET ratio; inhibition, % (test concentration not listed); actives 1.1% (n = 300,000); AID 2216;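 active means most replicates above 15%; inconclusive means exactly half above 15%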;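 further: 0% = DMSO wells and 100% = Ran loaded with GDP instead of GTP; wells of about 40 µL received 100 nL stock; the first replicate is given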
AF4-AF9 inh: inhibitors of human MLL-AF4/AF9 interaction; AlphaScreen, biotin-AF4 peptide binding to FLAG-AF9; inhibition, % at 10 µM; actives 0.47% (n = 350,000); AID 651704;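 active means every replicate reaching a set inhibition limit, whatever the replicate mean, cut at about 25% in these data; inconclusive means mean inhibition reaches that limit but some replicates miss it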;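 further: 0% = plate neutral control median and 100% = total signal loss; the record names both 10 and 1 µM as test concentration; the first replicate is given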
Target sequence (P42568 whole entry, looked up): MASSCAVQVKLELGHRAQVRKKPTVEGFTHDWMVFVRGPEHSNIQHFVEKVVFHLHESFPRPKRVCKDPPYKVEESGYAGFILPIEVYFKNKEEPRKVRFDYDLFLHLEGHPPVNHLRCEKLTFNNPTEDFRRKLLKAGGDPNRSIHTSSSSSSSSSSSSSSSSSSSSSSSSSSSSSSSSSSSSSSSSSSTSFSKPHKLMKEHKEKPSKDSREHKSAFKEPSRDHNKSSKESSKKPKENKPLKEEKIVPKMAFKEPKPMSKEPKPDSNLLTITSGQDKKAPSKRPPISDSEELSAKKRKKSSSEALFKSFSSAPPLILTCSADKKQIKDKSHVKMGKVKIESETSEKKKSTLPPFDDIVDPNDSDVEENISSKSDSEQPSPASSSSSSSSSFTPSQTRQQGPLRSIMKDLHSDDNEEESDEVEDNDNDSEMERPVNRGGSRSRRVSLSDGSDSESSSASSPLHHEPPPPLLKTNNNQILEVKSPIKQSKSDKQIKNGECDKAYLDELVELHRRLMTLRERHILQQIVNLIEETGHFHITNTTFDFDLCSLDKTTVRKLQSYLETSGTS
A1 inh: inhibitors of the anti-apoptotic protein A1, read as caspase activation. caspase activation, % (test concentration not listed). actives 0.066% (n = 330,000). MEF A1-2A-BIM cells, Caspase-Glo 3/7 luminescence, 3 h; percent of clofoctol response, vehicle zero;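 active means over half of replicate activation scores above 10%, or exactly half above 10 with the replicate mean above 10; inconclusive means replicate mean below 10 yet half the replicates above 10; inactive means over half of replicates below 10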;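 further: wells of about 30 µL received 50 nL stock; many hits fall short of the cut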
T cruzi inh: blocks replication of Trypanosoma cruzi. T. cruzi beta-gal in NIH3T3, luminescence, 90 h. inhibition, % (test concentration not listed). actives 1.4% (n = 300,000). AID 1885;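 active means mean inhibition across valid replicates above about 55%, limit read from the data; inconclusive means mean below that limit but half or more replicates reach it; inactive means mean below it, under half of replicates reach it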;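 further: signal also drops with host cell toxicity which is not excluded here; 0% = plate median of DMSO wells and 100% = zero luminescence signal; higher percent means less beta-gal luminescence so fewer parasites; stock transfer was 50 nL into about 50 µL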
Calb FLC: affects C. albicans growth with fluconazole; C. albicans CaCi-2 (fluconazole-resistant clinical isolate) + fluconazole, Alamar Blue growth, 48 h; growth inhibition, % (no concentration beside the values); actives 0.57% (n = 300,000);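 active means most replicates above 75%; inconclusive means exactly half above 75%; inactive means most below 75%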;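 further: all wells also contain fluconazole at 8 µg/ml as a sub-toxic cotreatment; 0% = median of DMSO wells and 100% = median of geldanamycin control wells; wells of about 8 µL received 7.5 nL stock; the first replicate is given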
Ecoli rRNA inh OD600: also measured in Ecoli rRNA inh; calls as there; OD600 change, %; measured here: OD600 growth;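 optical density of the mix in the first replicate; 0 = DMSO median and -100 = no signal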
Ecoli rRNA inh RFP: also measured in Ecoli rRNA inh; calls as there; RFP signal change, %; measured here: RFP humanized mutant strains;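 first replicate; 0 = DMSO median and -100 = no signal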
* hit, by the source's call; ? = inconclusive; . = no result given. Some of the compounds tested; rates above refer to the full screens.

1) O=C(NCC1CCCO1)c1cncc(Br)c1 (stereo unspecified)
2) CCCCNC(=O)CN1C(=O)COc2ccc(S(=O)(=O)N3CCCCCC3)cc21
3) COc1ccc(Cn2nnnc2CN2CCc3ccccc32)cc1
4) COc1cc(-c2c(C#N)c(=O)[nH]c3c2c(C)nn3-c2ccccc2)ccc1O
5) CC(C)(C)c1ccc(OCCNC(=S)NC(=O)c2cccnc2)cc1
6) C=CCN(c1ccc(C(=O)N2CCN(c3ccc(F)cc3)CC2)cc1)S(C)(=O)=O
7) Cc1nc(N2CCCCC2)sc1C(=O)c1ccc(Cl)c([N+](=O)[O-])c1
8) COc1cccc(C(=O)N(Cc2ccco2)c2c(N)n(Cc3ccccc3)c(=O)[nH]c2=O)c1
9) Cc1cccc(NS(=O)(=O)c2ccc(C(=O)NCC(c3ccccc3)N(C)C)cc2)c1C (stereo unspecified)
10) COc1ccc(C2NC(=O)c3n[nH]c(C)c32)c(OC)c1 (stereo unspecified)
screen / no.	1	2	3	4	5	6	7	8	9	10
Vif TR-FRET	.	9%	7%	-1%	-5%	7%	-6%	0%	18%	2%
Beta apoptosis	-3	-13	6	-3	4	1	4	-4	2	.
Ecoli rRNA inh	22	-5	-6	.	.	.	.	9	-17	3
Ecoli rRNA inh OD600	17	-17	-5	.	.	.	.	9	-30	9
Ecoli rRNA inh RFP	-1.7	3.7	16	.	.	.	.	0.5	-3.9	-1.8
RanGTP-Impb inh	-0.3	5.4	0.2	3.1	0.2	2.9	2.3	.	-3.1	0.1
AF4-AF9 inh	0.5	-2.3	-7.4	.	.	.	.	5.6	7.6	1.7
A1 inh	-0.8	0.4	0.3	0.1	-0.3	-1.8	0.1	-0.1	2.1	0.3
T cruzi inh	-1	-5	-4	-10	22	-1	14	.	27	-4
Calb FLC	-10	-4	4	54	1	-5	9	.	4	-2

11) O=C(NC1CCS(=O)(=O)C1)C1CCCN(S(=O)(=O)c2ccc(Cl)cc2)C1 (stereo unspecified)
12) Cc1cccc(C)c1N1CCN(CCn2c(=S)[nH]c3ccccc3c2=O)CC1
13) CC1CCC2(CC1)NC(=O)N(CC(=O)c1cccn1C)C2=O (stereo unspecified)
14) CC(C)(C)C(=O)NC(=S)Nc1ccccc1C(=O)Nc1ccccc1
15) CCCc1c2ccccc2nc2ccccc12
16) CC12CCC(C(=O)Nc3nccs3)(OC1=O)C2(C)C (stereo unspecified)
17) CN(Cc1ccsc1)C(=O)Cn1cc(Br)ccc1=O
18) Cc1cccc(-c2noc(CCC(=O)NCCc3ccccc3)n2)c1
19) COc1cccc(C(=O)C2CCCN(Cc3cn(C)nc3-c3ccccc3)C2)c1 (stereo unspecified)
20) CC(C)(C)c1ccc(-n2ncc3c2CCCC3NC(=O)CCCn2cncn2)cc1 (stereo unspecified)
screen / no.	11	12	13	14	15	16	17	18	19	20
Vif TR-FRET	-10%	.	3%	-3%	6%	-1%	0%	.	.	.
Beta apoptosis	-5	-3	1	2	-8	-10	7	0	8	.
Ecoli rRNA inh	.	2	.	.	.	.	5	-7	-5	-17
Ecoli rRNA inh OD600	.	10	.	.	.	.	8	-16	-4	-10
Ecoli rRNA inh RFP	.	9.6	.	.	.	.	0.4	-0.3	0.7	-1.3
RanGTP-Impb inh	3.2	-3.9	-2.7	0.0	21*	-1.9	6.5	2.2	-2.0	-0.2
AF4-AF9 inh	.	1.2	.	.	.	.	-2.4	-0.3	4.0	2.3
A1 inh	-0.1	-2.5	-0.6	-0.6	0.2	-0.8	-0.4	-0.8	1.0	.
T cruzi inh	-17	-4	-9	1	14	-5	-9	-4	9	19
Calb FLC	4	2	-6	-7	22	?	-4	-9	-7	1

21) CCN(CC)S(=O)(=O)c1cccc(NC(=O)c2ccc(SC)cc2OC)c1
22) COc1ccc(N(C(=O)c2ccccc2OC(C)=O)C(C)C2CC2)cc1 (stereo unspecified)
23) Cc1ccc(OCc2cc(C(=O)NC(C)Cc3cnccn3)no2)cc1C (stereo unspecified)
24) CCCc1nc(SCc2ccc(OCC)cc2)n[nH]1
25) COC(=O)c1ccc(NC(=O)CCS(=O)(=O)c2ccc(Br)s2)cc1
26) COc1ccc(-n2ccc(=O)c3c2CCCC3=O)cc1
27) CCOc1ccc(C(=O)N[C@H](C(=O)Nc2ccc(OC)c(S(=O)(=O)N3CCOCC3)c2)C(C)C)cc1
28) COC(=O)CSc1nc2ccc(NC(C)=O)cc2s1
29) COc1ccccc1OCCNC(=O)C(=O)c1c[nH]c2ccccc12
30) CCC(=O)Nc1ccc(N2CCN(C(=O)c3ccccc3C)CC2)cc1
screen / no.	21	22	23	24	25	26	27	28	29	30
Vif TR-FRET	-3%	-1%	.	-8%	-4%	9%	-8%	-9%	-5%	10%
Beta apoptosis	14	-6	-4	-3	4	5	-3	.	-6	-7
Ecoli rRNA inh	-25*	.	-2	4	.	.	5	.	-11	.
Ecoli rRNA inh OD600	-19*	.	-18	6	.	.	-16	.	5	.
Ecoli rRNA inh RFP	-2.9*	.	0.6	-2.5	.	.	-3.1	.	2.1	.
RanGTP-Impb inh	-3.9	1.4	3.7	5.7	-3.0	5.7	-4.6	?	-2.2	3.7
AF4-AF9 inh	-1.8	.	0.6	-1.7	.	.	-4.0	.	3.3	.
A1 inh	0.0	0.2	-0.4	-0.2	0.7	0.0	1.0	-0.1	1.2	0.7
T cruzi inh	20	-4	3	1	14	7	26	-2	-2	2
Calb FLC	20	1	0	-14	-3	-3	-6	-1	3	5

31) COc1ccc(/C=C/C(=O)O)cc1S(=O)(=O)N1CCCc2ccccc21
32) CC(=O)N1CCN(C(=O)c2cc(C)nc3ccccc23)CC1
33) COc1ccc(OCC(=O)NNC(=O)Cc2coc3cc(OC)ccc23)cc1
34) COc1cc(N2CCCC2)ccc1C=O
35) CC(CCc1ccccc1)NC(=O)c1ccc2nc(N3CCOCC3)sc2c1 (stereo unspecified)
36) COc1ccc(/C=C/c2nnc(NC(=O)CSc3ccc(C)cc3)s2)cc1
37) CC(=O)Nc1ccc(S(=O)(=O)N(C)CC(=O)OCC(=O)c2ccc[nH]2)cc1
38) CC1(C)CC(=O)N(c2cc(Cl)cc(Cl)c2)C(=O)C1
39) COc1cc(/C=C/C(=O)c2ccc([N+](=O)[O-])o2)ccc1O
40) COc1ccc(/C=N/S(=O)(=O)c2ccccc2)cc1OC
screen / no.	31	32	33	34	35	36	37	38	39	40
Vif TR-FRET	12%	10%	.	.	.	78%	1%	-7%	.	0%
Beta apoptosis	-6	0	-2	-2	-1	.	-8	0	115*	-7
Ecoli rRNA inh	5	26	.	-5	7	-2	2	10	-24*	13
Ecoli rRNA inh OD600	-3	20	.	-3	11	-3	5	10	-7.3*	8
Ecoli rRNA inh RFP	2.0	0.7	.	2.2	-3.6	-3.2	-0.8	-0.4	0.2*	-2.6
RanGTP-Impb inh	7.3	-0.5	-1.1	?	6.9	7.0	.	-0.4	-0.1	2.4
AF4-AF9 inh	-0.2	1.4	.	-2.4	-0.1	0.0	0.3	-2.4	3.4	-0.3
A1 inh	0.2	0.6	0.7	-0.4	0.3	.	-0.1	-0.4	3.0	0.0
T cruzi inh	-11	1	-8	-7	18	-13	.	1	?	-12
Calb FLC	-1	-2	0	?	20	6	.	0	-3	-15

41) CN(C)C(=O)c1noc2cc([N+](=O)[O-])ccc12
42) Cc1cccc(NC(=O)c2ccc(S(=O)(=O)N(C)C)cc2)c1
43) CC1CCCCC1NC(=O)COC(=O)c1ccc2c(c1)OCCO2 (stereo unspecified)
44) CCOC(=O)C1CCCN(C(=O)Cn2ncc3c([nH]c4ccccc43)c2=O)C1 (stereo unspecified)
45) O=C(O)CCCC(=O)OCc1c(-c2ccccc2)ncc2ccccc12
46) O=C(CSc1nn(-c2ccccc2)c(=S)s1)Nc1ncccn1
47) O=C(CCN1C(=O)C2C3C=CC(C3)C2C1=O)N1CCCCC1 (stereo unspecified)
48) Cc1cc(C)cc(N2CC(C(=O)Nc3cc(C)on3)CC2=O)c1 (stereo unspecified)
49) Cc1ccc([C@@H]2[C@@H]3C(=O)N(C)C(=O)[C@@H]3[C@]3(C)C(=O)N(CCO)CC(=O)N23)o1
50) CCCN(CC(=O)Nc1ccccc1C)C(=O)c1cccc(-n2cnnn2)c1
51) N#C/C(=C/c1ccc(-c2ccc(C(=O)O)c(Cl)c2)o1)C(=O)NCC1CCCO1 (stereo unspecified)
52) O=C(c1ccc2c(=O)n3c(nc2c1)CCCCC3)N1CCN(c2ccccc2F)CC1
screen / no.	41	42	43	44	45	46	47	48	49	50	51	52
Vif TR-FRET	6%	?	-5%	-2%	.	-9%	1%	.	.	.	4%	.
Beta apoptosis	-1	-1	-5	-2	-6	-5	-5	-6	-5	-4	-3	-2
Ecoli rRNA inh	.	-9	5	2	-1	12	12	1	.	4	1	-5
Ecoli rRNA inh OD600	.	-7	8	-3	-21	24	7	16	.	7	-1	-13
Ecoli rRNA inh RFP	.	-1.8	1.4	-0.9	-2.1	0.1	-4.9	-1.2	.	-2.8	0.0	-5.3
RanGTP-Impb inh	-1.5	4.2	.	3.2	.	-3.2	?	6.7	-2.6	-4.2	.	0.6
AF4-AF9 inh	.	-0.6	-2.3	-1.1	-2.3	-1.5	-1.2	0.5	-2.5	-0.7	-6.5	-2.4
A1 inh	-0.3	0.5	-1.1	0.2	0.2	0.3	0.3	0.3	-0.1	0.7	0.8	0.5
T cruzi inh	1	-4	.	10	.	.	-17	-6	-10	1	.	-4
Calb FLC	-6	-10	.	0	.	6	-2	-2	-4	-2	.	-4
